VACV mCherry inh: inhibitors of vaccinia virus infection (mCherry reporter signal); Vaccinia virus mCherry reporter infection, fluorescence; about a quarter of the inactives have no number; Potency, µM (doses to about 36.5 µM), inactives show at the highest dose activity change, negative = inhibition, most hits filed as inhibitors; 310,000 compounds, 0.63% hits; AID 720579; active = well fitted inhibition curve with a large enough effect; inconclusive = small, poorly fitted or top-dose-only effect; inactive = no such curve, though single readings can be large or run the other way; tested in A549 cells; further: nearly all actives have a fitted effect of over 35% in size; inactives centre near -10
Vaccinia Venus: vaccinia inhibition (Venus reporter); Vaccinia virus Venus reporter expression, fluorescence; Potency, µM (titrated, usually from 36.5 µM), for inactives: top-dose activity change, negative = inhibition, most hits filed as inhibitors; 330,000 compounds, 0.46% hits; AID 720580; active means well fitted inhibition curve with a large enough effect; inconclusive means small, poorly fitted or top-dose-only effect; inactive means no such curve, though single readings can be large or run the other way; tested in A549 cells; further: nearly all actives have a fitted effect of over 30% in size; inactives centre near -10
Active calls of the source: *; i = inactive; ? = inconclusive; nt = no result given; & = joins results of further samples; [ ] = another dose, or the depositor's remark. On the % scale 0 is the no-effect control and ±100 the full control effect; potency means the concentration at half of the fitted maximal effect.

SMILES | VACV mCherry inh | Vaccinia Venus
CN(c1ccc(OCC(=O)OCC(=O)Nc2ccccc2F)cc1)S(=O)(=O)c1cccs1 | -7% | -1%
NS(=O)(=O)c1ccc(NC(=O)c2ccc3nccnc3c2)cc1 | -10% | -4%
O=C1CN(C(=O)COC(=O)c2cc(Cl)ccc2[N+](=O)[O-])c2ccccc2N1 | i | -7%
NCCOc1ccccc1Cc1ccccc1 | -2%[1.46 µM] | -11%
COC1=C/C(=C/c2c(N)n3nc(CC(=O)N4CCOCC4)sc3nc2=O)C=CC1=O | -16% | -7%
CCOC(=O)c1cnc2c(C(F)(F)F)cccc2c1N1CCOCC1 | nt | -30%
COc1ccc(C(C)=O)cc1CSc1nc2ccccc2c(=O)n1-c1cccc(C)c1 | ? | -24%
Cc1c(C(=O)NC(=S)NCC(C)C)oc2ccccc12 | -2% | 2%
COC(=O)c1ccc(-n2c(C)cc(-c3csc(NC(=O)c4ccc(S(=O)(=O)N(C)C)cc4)n3)c2C)cc1 | i | -6%
COC(=O)c1c(C)[nH]c(C(=O)/C=C/c2ccccc2)c1C | -16% | -6%
O=S(=O)(c1ccc2c(c1)OCCO2)N1CCN(c2nc(-c3ccccc3)nc3ccccc23)CC1 | -8% | -8%
CC(C(=O)NC1CCCC1)N(C(=O)Cn1nnc(-c2ccc(F)cc2)n1)c1ccccc1F (centres undefined) | -9% | -16%
CCN(CC)CCCNC(=O)c1oc2ccc(S(=O)(=O)N3CC(C)CC(C)C3)cc2c1C (centres undefined) | ? | -27%
Cc1ccc(-c2cc(C(=O)N3CCCC(C(F)(F)F)C3)c3ccccc3n2)o1 (centres undefined) | i | -10%
CCOc1ccccc1N(CC(=O)N1CCC(C(N)=O)CC1)S(=O)(=O)c1ccc(SC)cc1 | -19% | -14%
Cc1nc(SCc2c(F)cccc2Cl)c2c(=O)n(C)c(=O)n(C)c2n1 | -19% | -22%
CCOCCCNCc1cn(-c2ccc(F)cc2F)nc1-c1ccccc1C | -20% | -17%
O=c1[nH]c(-c2ccccc2)cs1 | i | -2%
Cc1nnc(SCc2cc(=O)oc3ccc4ccccc4c23)n1Cc1ccccc1 | i | -9%
Cc1ccc(S(=O)(=O)NCCC(=O)Nc2ccncc2)cc1C | 0% | -10%
C#Cc1ccc(NC(=O)C2(C)CCN2C(=O)Cc2ccc(C(C)(C)C)cc2)cc1 (centres undefined) | i | -10%
COc1ccc(S(=O)(=O)N(CC(=O)O)c2ccc(C)cc2)cc1 | -4% | -4%
CC1CCN(C(=O)c2ccc3c(c2)N(Cc2ccccc2)C(=O)c2ccccc2S3(=O)=O)CC1 | -13% | -6%
Clc1cccc(-c2ccc(CNCCSc3nnnn3-c3ccccc3)o2)c1 | -2% | -3%
Nc1cnnc(N/N=C\c2ccccc2)c1Cl | i | -8%
O=C(COC(=O)c1ccc(-c2cnc3ccccc3n2)cc1)c1ccccc1 | 0% | 7%
COc1ccc(NC(=O)C(=O)c2cn(CC(=O)N3CCCC3)c3ccccc23)cc1OC | -14% | -27%
O=c1c2c(nc3c(-c4ccc(Cl)cc4)c[nH]n13)CCC2 | -6% | -26%
CN1C2CCC1C(COC(=O)c1ccccc1)C(O)C2 (centres undefined) | -2% | -3%
Cc1ccc(S(=O)(=O)/N=C2\C=C(Nc3ccc(O)cc3)C(=O)c3ccccc32)cc1 | 5µM* | 2.2µM*
COc1ccccc1NS(=O)(=O)c1ccc(C(N)=O)cc1 | -19% | -14%
O=C(/C(=C/O)N=Nc1cccc(C(F)(F)F)c1)c1ccccc1 | -11% | -17%
CCOc1ccccc1NC(=O)C(c1ccccc1)N1Cc2ccccc2C1=O (centres undefined) | i | -6%
Cc1ccc(C(=O)Nc2nnn(C)n2)cc1 | -16% | -10%
COc1ccc(CC(=O)N/N=C(/C)c2ccco2)cc1 | i | -7%
Clc1ccccc1-c1nnc2n1CCCCC2 | -15% | -8%
Nc1ccc(C(=O)O)cc1 | -2%&-21% | -7%&-3%&5%&-14%
CC(=O)Nc1ccccc1NC(=O)C/C(C)=N/NC(=O)c1ccc([N+](=O)[O-])c(Cl)c1 | -8% | -19%
Cc1cc(C)c(NC(=O)CSc2nccn2C)c(C)c1 | -9% | -10%
CCCN(CCC)S(=O)(=O)c1ccc(NC(=O)Cc2cccs2)cc1 | -20% | -12%
Cc1ccsc1C(=O)NC1CCCN(Cc2ccc(Cl)cc2)C1 (centres undefined) | -19% | -20%
O=C(c1ccc(F)cc1)c1ccc(N2CCCC2)cc1 | -19% | ?
COC(=O)C1(C)NC(c2ccco2)C2C(=O)N(c3ccc(F)cc3)C(=O)C21 (centres undefined) | -12% | -1%
C#Cc1ccc(CN2CCN(Cc3ccsc3)C(CCO)C2)cc1 (centres undefined) | -3% | -14%
Cc1ccc(S(=O)(=O)N2C[C@H]3C(=O)C[C@@H](c4cccc(Cl)c4)N(S(=O)(=O)c4ccc(C)cc4)[C@H]3C[C@H]2c2cccc(Cl)c2)cc1 | -12% | -13%
CCCCCCCCNC(=O)c1cnccn1 | i | -10%
CCN(CC)/C(Sc1ccccc1)=C(\C(Cl)=C(Cl)Cl)[N+](=O)[O-] | i | -8%
CCc1ncc(C)nc1CC | -4% | 4%
COC(=O)N/N=C/c1ccc(OS(=O)(=O)c2ccc(C)cc2)c(OC)c1 | -15% | -7%
COc1ccc(CCNC(=O)c2cc(S(=O)(=O)N3CCCC(C)C3)cn2C)cc1OC (centres undefined) | -8% | 0%
Other results.
SMILES | VACV mCherry inh | Vaccinia Venus
NC(COCc1ccccc1)c1csc(Nc2ccc(S(N)(=O)=O)cc2)n1 (centres undefined) | 12% | -6%
COc1ccccc1C(=O)COC(=O)Cn1[nH]c(=O)c2ccccc2c1=O | -9% | -1%
O=C(CCn1cccn1)N1CCCC(N2CCN(c3cccc(Cl)c3)CC2)C1 (centres undefined) | -23% | -10%
O=C1CC(c2ccccc2)CC(O)=C1C=NCc1ccncc1 (centres undefined) | 3% | -6%
CCOC(=O)c1nn(-c2ccc(C)cc2)c(=O)cc1OCC(=O)Nc1cc(C)ccc1OC | i | -20%
CCOc1ccc(S(=O)(=O)N2CCCCC2)cc1NC(=O)Cc1cccs1 | ? | -17%
COc1ccc(-c2c3c(nc4sc(C(=O)Nc5ccccc5F)c(N)c24)CC(C)(C)CC3=O)cc1 | -6% | -4%
COc1ccc(S(=O)(=O)N2CCCC(C(=O)O)C2)cc1 (centres undefined) | nt | -9%
Cn1cc(S(=O)(=O)N2CCCCC2)cc1C(=O)Nc1ccc(OC(F)(F)F)cc1 | -15% | -12%
Cn1c(CO)cnc1-c1ccccc1 | -2% | -2%
O=S1(=O)CC2SC(=S)N(Cc3ccccc3)C2C1 (centres undefined) | -5%[7.34 µM] | 1%[7.34 µM]
CN(CC(=O)O)C(=O)c1ccccc1 | -12% | -2%
CCOC(=O)c1ccc(NC(=O)CN(C)S(=O)(=O)c2ccc(Br)s2)cc1 | -17% | -8%
Cc1nc2ccc(CCO)cc2s1 | -17% | -5%
COc1ccc(CCNC(=O)C2c3ccccc3C(=O)N2Cc2ccccc2)cc1OC (centres undefined) | -10% | -8%
O=C(NCCN1CCOCC1)[C@H](Cc1ccccc1)N1C(=O)c2ccccc2C1=O | nt | -4%
CCCNC(=O)c1ccccc1C(=O)NC1(C(=O)NCCC)CCCC1 | i | -2%
CNC(Cc1c[nH]c2ccccc12)C(=O)O (centres undefined) | -4% | -9%
Cc1cc(NC(=O)CSCC(=O)N(C)Cc2ccc(F)cc2)no1 | -21% | -14%
NC(COCc1ccccc1)c1csc(Nc2ccc(C(F)(F)F)cn2)n1 (centres undefined) | ? | -25%
CCc1ccc2oc(-c3cccc(NC(=O)c4cccnc4)c3)nc2c1 | nt | -24%
Cc1ccc(C(=O)N/N=c2\sc3ccccc3n2C)cc1 | -27% | -12%
COC(=O)c1ccc2nc(C3CCCCC3)c(Cc3ccccc3)n2c1 | 7% | -1%
COc1cc(C(=O)Nc2nnc(C)s2)c([N+](=O)[O-])cc1OC | -10% | 9%
CC1Cc2cc(S(=O)(=O)N(Cc3ccccc3)C(C)C)ccc2N1C(=O)C1CCC1 (centres undefined) | -29% | ?
CCOC(=O)c1c(C)oc2ncnc(Nc3ccc(CC)cc3)c12 | -2% | 8%
Cc1cc(C)cc(NC(=O)C(=O)NCC(c2cccnc2)N2CCc3ccccc32)c1 (centres undefined) | -21% | -23%
COc1ccc(-c2nc(SCC(=O)NC(C)CCc3ccccc3)n[nH]2)cc1 (centres undefined) | -17% | ?
CC(c1nnc(SCC(=O)c2c(N)n(C)c(=O)n(C)c2=O)n1-c1ccc(Cl)cc1)N(C)C (centres undefined) | -11% | -2%
C/C(=N\NC(=O)NC1CCCCC1)c1ccc(Cl)s1 | -2% | -4%
O=C(Nc1nc2ccc(S(=O)(=O)N3CCCCC3)cc2s1)C1CCCO1 (centres undefined) | -10% | -24%
COc1cccc2sc(NNC(=O)C3COc4ccccc4O3)nc12 (centres undefined) | -22% | -8%
Cc1c(Br)c([N+](=O)[O-])nn1CC(=O)N1CCc2ccccc21 | ? | 9%
O=C1[C@H]2[C@@H](/C=C/c3ccccc3)N3C(=O)CN(CCO)C(=O)[C@@]3(Cc3ccccc3)[C@H]2C(=O)N1c1ccccc1 | -13% | -21%
COc1ccc(/C(C)=N/N2C(=O)c3ccccc3NC2c2ccc(O)c(OC)c2)cc1 (centres undefined) | -8% | -6%
COC(=O)c1ccc(NC(=O)NC(C)c2c(-n3cccc3)sc(C)c2C)cc1 (centres undefined) | -15% | -13%
CN(c1ccccc1)S(=O)(=O)c1cccc(NC(=O)C2=NNC(=O)CC2)c1 | -14% | -20%
Cc1ccc(SC(c2ccccc2)C(Cn2cncn2)C(=O)c2ccccc2)cc1 (centres undefined) | nt | -15%
N#Cc1ccc(-c2nc3ccc(Cl)cn3c2Cc2ccccc2)cc1 | 24% | 5%
Cn1ncc(Cl)c1C(=O)Nc1cccnc1 | -11% | 8%
CC(C)CC(=O)Nc1ccc(C(=O)COC(=O)C2=COCCO2)cc1 | -19% | -16%
O=C(c1ccc(F)cc1)C1CCN(C(=O)Nc2ccccc2Cl)CC1 | -21% | -2%
CCc1ccc2oc(-c3cccc(NC(=O)COc4ccccc4Cl)c3)nc2c1 | -5% | 12%
Cc1ccc(C(=O)Nc2ccc3cn[nH]c3c2)cc1S(=O)(=O)N1CCCCC1 | nt | -36%
CCCCN(C(=O)CSc1cc(C)c2ccccc2n1)c1c(N)n(Cc2ccccc2)c(=O)[nH]c1=O | -4% | -21%
CCOC(=O)c1sc2nc(NC(=O)C3CCCCC3)sc2c1C | i | -20%
CCCc1nnc(SCC(=O)N2CCCCC2C)n1CCCOC (centres undefined) | -17% | -7%
COc1ccc(C(C(=O)NC2CCCC2)N(C(=O)c2snc(C(N)=O)c2N)c2cc(C)ccc2OC)cc1OC (centres undefined) | -4% | 1%
COc1cc(OC)c(/C=C/c2nc3ccccc3o2)c(OC)c1 | -12% | -10%
C=C(C)COc1ccc(-c2nc(N)ncc2-c2ccccc2OC)c(O)c1 | -22% | -7%
(cont.)
SMILES | VACV mCherry inh | Vaccinia Venus
C/C(=N\OCC(=O)N/N=C/c1ccccc1O)c1cccs1 | -19% | -16%
Cc1ccc(NC(=O)c2ccc(=O)n(CC(=O)Nc3c(C)cc(C)cc3C)n2)cc1 | -16% | -27%
COc1cc(/C=C/C(=O)OCC(=O)NCc2ccco2)cc(OC)c1OC | i | -13%
CCNC(=O)NC(=O)C(C)Sc1nc2ccccc2n1CC(C)C (centres undefined) | nt | ?
CC(=O)c1cccc(NC(=O)CSc2nc3ccccc3nc2Cc2ccc(F)cc2)c1 | -23% | -23%
Cc1ccccc1NC(=O)c1ccc(NC(=O)C2CC(=O)OC23CCCCC3)cc1 (centres undefined) | 2% | 1%
CC(=O)N1CCN(C(=O)CC2OC(=O)c3ccccc32)CC1 (centres undefined) | nt | 17%
CC1CN(C(=O)c2cccc(COc3ccccc3Cl)c2)CC(C)O1 (centres undefined) | -1% | -19%
Cn1ncc2c(NNC(=O)C3CCCCC3)ncnc21 | -1% | -6%
